Assay outcomes as filed in PubChem.
Rango release inh – prevents RanGTP from dissociating the Rango-importin beta complex; O95149+P62826; Biochemical FRET Rango-importin beta, RanGTP-induced dissociation; Potency, µM (highest dose often 46.1 µM), inactives show at the highest dose activity change, negative = inhibition; 340,000 compounds, 0.071% hits; active means falling FRET ratio curve, often poorly fitted, with flat reads before Ran was added; inconclusive means other falling curves, or compound fluorescence or quenching; inactive means flat or rising ratio curve;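 note: potency is the fitted concentration of half-maximal effect; % of control where 0% means no effect; nearly all actives have a fitted effect of over 45% in size; -100% = wells without RanGTP and RCC1; the record marks most hits as doubtful in a second field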
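Rango (0.1 uM)–importin beta (0.25 uM) complex; RanGTP-RCC1 trigger; 45 min RT; CFP/YFP FRET read.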
Rango complex inh – inhibitors of Rango-importin beta complex formation; Q14974; Rango CFP/YFP FRET sensor + importin beta, 45 min; Potency, µM (top dose mostly 92.2 µM), inactives show top-dose inhibition of complex formation; 340,000 compounds, 0.031% hits; active = rising FRET ratio curve, often small or poorly fitted; inconclusive = mostly compound fluorescence or quenching in the first reads; inactive = flat curves in all reads;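 note: potency is the fitted concentration of half-maximal effect; 0% = DMSO wells and 100% = buffer wells lacking importin beta; nearly all actives have a fitted effect of over 15% in size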
Target sequence (Q14974 whole entry, looked up): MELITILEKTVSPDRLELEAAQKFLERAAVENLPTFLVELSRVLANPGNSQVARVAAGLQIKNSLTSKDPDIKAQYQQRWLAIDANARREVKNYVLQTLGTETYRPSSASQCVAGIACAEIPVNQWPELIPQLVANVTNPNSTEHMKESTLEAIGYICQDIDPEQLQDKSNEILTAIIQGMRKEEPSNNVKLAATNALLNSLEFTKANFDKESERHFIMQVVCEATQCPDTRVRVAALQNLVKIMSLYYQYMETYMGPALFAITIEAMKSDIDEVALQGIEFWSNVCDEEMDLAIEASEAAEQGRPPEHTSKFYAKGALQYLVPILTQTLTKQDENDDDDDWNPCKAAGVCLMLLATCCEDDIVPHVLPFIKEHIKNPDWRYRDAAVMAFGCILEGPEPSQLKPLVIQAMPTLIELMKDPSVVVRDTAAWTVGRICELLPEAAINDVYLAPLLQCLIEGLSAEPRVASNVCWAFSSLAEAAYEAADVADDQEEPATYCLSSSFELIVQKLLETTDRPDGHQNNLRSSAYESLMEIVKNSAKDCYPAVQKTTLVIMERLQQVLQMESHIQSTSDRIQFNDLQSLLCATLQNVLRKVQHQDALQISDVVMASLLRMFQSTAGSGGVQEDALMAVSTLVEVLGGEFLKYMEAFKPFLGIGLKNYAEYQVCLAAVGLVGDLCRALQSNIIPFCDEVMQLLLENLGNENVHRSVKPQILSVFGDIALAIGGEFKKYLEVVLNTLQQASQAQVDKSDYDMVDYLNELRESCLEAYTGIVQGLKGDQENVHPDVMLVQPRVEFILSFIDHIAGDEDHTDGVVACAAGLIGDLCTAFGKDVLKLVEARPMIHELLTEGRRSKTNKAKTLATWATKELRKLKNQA
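Inhibition scored from the CFP 486 nm/YFP 530 nm FRET ratio 45 min after adding 0.125 microM importin beta to 50 nM Rango biosensor preincubated 5 min with compound (room temperature, PBS with DTT, Tween-20, BSA). No-importin wells as positive control.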
GLA inh pH 4.5 – alpha-galactosidase A (human) inhibition, pH 4.5; P06280; purified enzyme, 4-MU-alpha-Gal fluorescence, pH 4.5; activity change, negative = inhibition, % at 105 µM; 230,000 tested, under 10 active; inconclusive = small, poorly fitted or top-dose-only inhibition, or a rising curve; inactive = flat fitted curve, though single readings scatter; no compound was filed as active;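 note: 0% = full activity with enzyme and -100% = basal without enzyme; dose as in the result columns while the protocol names 77 µM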
miR-21 reporter – raises the signal of a miR-21 reporter; Potency, µM (doses to about 38.3 µM), without a hit: top-dose reporter change, positive = more light; AID 2288; HeLa miR-21 FLuc reporter, luciferase, 48 h; 340,000 tested, under 10 active; active = well fitted rising curve with a large enough effect; inconclusive = small, poorly fitted or top-dose-only effect; inactive = no such curve, though single readings can be large or run the other way;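 note: % of control where 0% means no effect; miR-21 action dims this reporter so a rising signal means less miR-21 action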
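HeLa cells endogenously expressing miR-21, stably carrying CMV-driven firefly luciferase with a downstream miR-21 binding site, 2000 cells/well. Titrations up to approximately 40 uM, 48 hours; luciferase luminescence read.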
The depositor's hits bear a star; u = inconclusive; x = no result given; & = joins results of further samples; [ ] = remark or other dose.

nr	Molecule	Rango release inh	Rango complex inh	GLA inh pH 4.5	miR-21 reporter
1	COc1cccc(N2CCN(C(=O)c3[nH]c(C)c(C(C)=O)c3C)CC2)c1	-22%	3.8%	1	14%
2	COc1ccc(C(=O)NC(=S)Nc2nc(C)cc(C)n2)cc1Br	10%	1.3%	5	-10%
3	CCCn1cc(CN2CCC(n3nccc3NC(=O)C(OC)c3ccccc3)CC2)c(C)n1 (stereo not given)	-6%	u	x	2%
4	O=C(c1ccccc1)C1C(=O)c2ccccc2C1=O	-13%	2.9%	1	-11%
5	COc1cc(C2C(C(=O)c3ccc(C)o3)=C(O)C(=O)N2CCc2ccccc2)ccc1O (stereo not given)	8%	0.1%	-10	-19%
6	NC(=O)NOCc1ccc(F)cc1Cl	7%	3.7%	2	-8%
7	COc1ccc(/C=C/C(=O)c2c(O)cc(C)oc2=O)c(OC)c1	u	u	1	-36%
8	CCN(C(=O)CN1CCN(c2ccccc2OC)CC1)c1c(N)n(Cc2ccccc2)c(=O)[nH]c1=O	-8%	-2.6%	3	-10%
9	Cc1ccc(NC(=O)c2cc3nc(C)cc(C)n3n2)cc1	-6%	-2.7%	-1	-41%
10	COc1ccc(CCCc2nnc(SCC(=O)Nc3cc(C)ccc3C)o2)cc1	10%	-2.1%	1	-2%&0%
11	Cc1ccc2c(c1)N(CC(=O)NC1CCC(C)CC1)C(=O)c1cccnc1O2 (stereo not given)	0%	1.5%	x	-3%
12	COc1ccccc1C(=O)Nc1ccc(OC(C)C(=O)N2CCOCC2)cc1 (stereo not given)	-7%	6.5%	x	x
13	Cc1cc[n+](C2=C([O-])c3ccccc3C(=O)/C2=N\S(=O)(=O)c2cccs2)cc1C	-12%	-1.2%	-7	u
14	CCn1ncc(C2=NOC(C(=O)Nc3cccnc3)C2)c1C (stereo not given)	-15%	-1.8%	1	-13%
15	O=C(/C=C/c1ccc(OCc2cccc(Cl)c2)cc1)N1CCOCC1	1%	-0.3%	-25	-5%
16	COC(=O)c1ccccc1NC1CC(=O)N(c2c(C)cccc2C)C1=O (stereo not given)	5%	-1.0%	25	6%
17	Cc1cc(C)c2c3c(sc2n1)C(=O)N(c1ccccc1C)CC(=O)N3	-5%	1.9%	-1	-12%
18	O=C(O)c1cc(N/N=C/c2cccs2)ccc1Cl	x	x	4	-65%
19	Cc1ccccc1CNC(=O)C1CCC(=O)N(C2CCCCCC2)C1 (stereo not given)	14%	-2.8%	x	-8%
20	O=C(Nc1cccc(Cl)c1)c1ccccc1	9%	-1.1%	x	x
21	CCONC(=O)Nc1ccccc1	2%	-3.8%	5	-6%
22	CCc1cc2c(SCC(=O)c3ccc(Cl)s3)ncnc2s1	-17%	u	-2	-2%
23	Cc1cc(NC(=O)C2CC2)ncc1NC(=O)c1ccccn1	1%	5.3%	5	-43%
24	COc1ccc(N2CCN(c3ccc(N4C(=O)CC(C)C4=O)cc3[N+](=O)[O-])CC2)cc1 (stereo not given)	3%	3.2%	-28	-1%
25	COc1ccc(CCN=CC2=C(O)CCCC2=O)cc1OC	1%	4.2%	-1	0%
26	O=C(COC(=O)c1ccc(O)cc1O)N=c1sccn1Cc1ccccc1Cl	31%	-2.4%	x	x
27	Cc1ccc(-n2c(C)cc3c2CC(C)(C)CC3=O)cc1C	-15%	-0.6%	1	-2%
28	COc1ccc([N+](=O)[O-])cc1N(CC(=O)NC1CCCCC1)S(C)(=O)=O	-11%	0.0%	6	-2%
29	CCOc1cc(/C=N/Nc2cccc(C(=O)O)c2)ccc1OCC(=O)N1CCCCC1	-8%	-0.3%	7	-36%
30	COc1ccc2nc(NC(=O)C3CCCN(S(=O)(=O)c4cccc5nsnc45)C3)sc2c1 (stereo not given)	11%	7.4%	-4	14%

Among those listed so far, these contain two or more sulfur atoms:
nr	Molecule	Rango release inh	Rango complex inh	GLA inh pH 4.5	miR-21 reporter
13	Cc1cc[n+](C2=C([O-])c3ccccc3C(=O)/C2=N\S(=O)(=O)c2cccs2)cc1C	-12%	-1.2%	-7	u
22	CCc1cc2c(SCC(=O)c3ccc(Cl)s3)ncnc2s1	-17%	u	-2	-2%
30	COc1ccc2nc(NC(=O)C3CCCN(S(=O)(=O)c4cccc5nsnc45)C3)sc2c1 (stereo not given)	11%	7.4%	-4	14%

Further structures.
nr	Molecule	Rango release inh	Rango complex inh	GLA inh pH 4.5	miR-21 reporter
31	O=C(COC(=O)c1cccs1)NC1CCCCC1	-1%	-1.9%	1	-2%
32	CC(OC(=O)c1cc(S(=O)(=O)N(C)c2ccccc2)ccc1Cl)C(=O)Nc1ccc2c(c1)OCCO2 (stereo not given)	-6%	2.7%	-3	-5%
33	C/C(=N\NC(=O)c1cc(C(C)(C)C)[nH]n1)C12CC3CC(CC(C3)C1)C2	-10%	0.0%	6	-12%
34	CCCc1nn2c(=O)cc(CSCC(=O)Nc3cccc(C)c3)nc2s1	22%	5.5%	x	-3%
35	CCSc1nnc(NC(=O)[C@@H](NC(=O)c2ccccc2)C(C)C)s1	9%	0.2%	-7	-11%
36	COC(CNC(=O)c1ccc(CS(=O)(=O)c2ccccc2)o1)OC	-6%	0.2%	x	0%
37	Cc1cccc(/C=N/Nc2ccc3ccccc3n2)c1	-10%	-1.9%	-22	25%
38	Cc1cccc(NC(=O)CCCn2c(=S)[nH]c3ccccc3c2=O)c1	-8%	1.9%	5	4%
39	O=C(CN(c1cccc([N+](=O)[O-])c1)S(=O)(=O)c1ccccc1)NCc1cccnc1	5%	-0.3%	x	-4%
40	CC(C)N(C)S(=O)(=O)c1ccc(Cl)c(C(=O)O)c1	-7%	-2.9%	2	-5%
41	Cc1ccc(CNC(=O)/C=C/c2ccc(S(=O)(=O)N3CCOCC3)cc2)cc1	-5%	-1.0%	7	-4%
42	Cc1nn(CC(=O)N(C)c2c(N)n(Cc3ccccc3)c(=O)[nH]c2=O)c(C)c1[N+](=O)[O-]	-14%	5.3%	x	x
43	COc1ccc(Cl)cc1NC(=O)CCc1nnc2ccc(N3CCN(C)CC3)nn12	-7%	6.3%	x	-7%
44	COc1ccc(N(CC(C)C)S(=O)(=O)c2nnc(NC(=O)CC(C)C)s2)cc1	24%	-0.3%	x	1%
45	COc1ccc(N2CCN(C(=O)NC3CC(=O)N(c4ccc(OC)cc4)C3)CC2)cc1 (stereo not given)	-29%	-1.1%	5	0%
46	CCOC(=O)c1cnn(-c2ccccc2)c1-c1ccccc1	3%	-0.9%	-6	15%
47	Cn1cc(CCNC(=O)CC2C(=O)NCCN2CC(c2ccccc2)c2ccccc2)cn1 (stereo not given)	0%	-0.2%	8	-2%
48	N#Cc1cn(Cc2ccco2)c(=O)[nH]c1=O	-4%	2.8%	x	x
49	O=C1NC(=O)C2(N1)c1ccccc1-c1ccccc12	-3%	-3.5%	x	x
50	CCc1ccc2c(COC(=O)C3CC(=O)N(CCc4ccccc4)C3)cc(=O)oc2c1 (stereo not given)	-5%	-1.9%	x	x
51	O=c1[nH]cnc2ccc([N+](=O)[O-])cc12	-6%	1.4%	0	0%
52	NS(=O)(=O)c1ccc(NC(=S)NC2CCCC2)cc1	-6%	-0.6%	-19	-5%
53	O=C(c1ccccc1)N1CC(COc2ccccc2)OC(c2ccco2)O1 (stereo not given)	-8%	1.9%	11	-10%
54	COc1ccc(-c2n[nH]c3c2C(c2ccc(OC)c(OC)c2)N(c2ccccc2)C3=O)cc1 (stereo not given)	-14%	-3.2%	5	-26%
55	Cc1c(NC(=O)/C(C#N)=C/C2CC=CCC2)c(=O)n(-c2ccccc2)n1C (stereo not given)	-5%	0.1%	1	0%
56	CCC(C)(C)n1nnnc1C(c1ccc(F)cc1)N1CCN(C(=O)c2ccco2)CC1 (stereo not given)	9%	-0.6%	x	-2%
57	O=C(OC(c1ccc(NS(=O)(=O)c2ccccc2)cc1)(C(F)(F)F)C(F)(F)F)c1ccccc1	6%	-1.1%	-10	22%
58	Cc1ccc(N(C(=O)c2snc(C(N)=O)c2N)C(CC(C)C)C(=O)NC2CCCC2)cc1 (stereo not given)	11%	-0.2%	x	0%
59	COc1ccc(N(C(=O)CNC(=O)c2ccco2)C(C(=O)NC2CCCC2)c2ccco2)cc1 (stereo not given)	-3%	-0.9%	x	0%
60	Cc1noc(C)c1COC(=O)c1ccc2c(c1)S(=O)(=O)c1ccccc1C2=O	3%	0.9%	4	-3%

Later entries
nr	Molecule	Rango release inh	Rango complex inh	GLA inh pH 4.5	miR-21 reporter
61	Cc1ccc(/C=C/C(=O)Nc2ccc([N+](=O)[O-])c(NC(=O)/C=C/c3ccc(C)o3)c2)o1	4%	u	1	0%
62	CNc1cc(=O)n(C)c(=O)n1-c1ccccc1	2%	-0.2%	x	x
63	COc1ccc(-c2csc(N(CCCN(C)C)C(=O)c3ccc(C(C)(C)C)cc3)n2)cc1	11%	0.7%	x	3%
64	COc1ccc(Oc2ccc(/C=C/C(=O)c3ccc(O)cc3)cc2[N+](=O)[O-])cc1	8%	-2.4%	-20	u
65	CCOc1ccccc1C(=O)OCC(=O)Nc1ncc(C(F)(F)F)cc1Cl	12%	0.5%	-9	-3%
66	Cc1ccc(NC(=O)Cc2ccc(-n3cccc3)cc2)c(C)c1	-2%	1.9%	1	-2%
67	Cc1cccc(NC(=O)CSc2nsc(SCC(=O)Nc3cccc(C)c3)c2C#N)c1	9%	5.1%	-9	-5%
68	CC(NC(=O)C(Cc1ccccc1)N1C(=O)C2C3CCC(C3)C2C1=O)c1ccccc1 (stereo not given)	-28%	6.5%	3	2%
69	COc1ccc(NC(=O)CN2C(=O)C(C)SC(C)C2=O)cc1 (stereo not given)	6%	-0.5%	1	-2%
70	C/C(CC(=O)Nc1ccc([N+](=O)[O-])cc1)=N/NC(=O)C1CC12CCC2 (stereo not given)	-7%	1.9%	-7[21.1 µM]	6%
71	Cc1ccccc1Cn1c(=O)n(C)c(=O)c2sccc21	5%	-2.5%	x	-4%
72	Cc1cccc(C(=O)N[C@H](C(=O)OCC(=O)NC(=O)c2cccn2C)C(C)C)c1	-16%	u	6	-3%
73	C=CCn1c(SCC(=O)Nc2nnc(C)s2)nnc1-c1cccnc1	-9%	0.5%	6	-6%
74	COC(=O)NN=C1CCC(c2ccccc2)CC1 (stereo not given)	5%	-0.9%	x	-7%
75	COc1ccc(C(=O)N2CCc3cc4c(cc3C2C)OCCCO4)cc1 (stereo not given)	2%	0.9%	x	2%
76	Cc1c(C(c2ccc(Br)cc2)c2c(C)n(C)n(-c3ccccc3)c2=O)c(=O)n(-c2ccccc2)n1C	-6%	-0.6%	x	-7%
77	O=C1CCCN1CCCNS(=O)(=O)c1ccc(F)c(F)c1	9%	-1.3%	x	1%
78	Cc1ccc(CN2CCNC(=O)C2CC(=O)NCC(F)(F)F)o1 (stereo not given)	7%	0.8%	-7	2%
79	CC(C)(C)[C@H]1COC(=O)[C@@H](Cc2ccc(F)cc2)C/C=C\C[C@@H](CC(=O)N[C@@H](CO)Cc2ccccc2)C(=O)N1	0%	-0.7%	x	x
80	Cc1ccc(Cl)cc1OCC(=O)NCCOC(=O)Nc1sc(=S)n(C)c1C	30%	1.4%	4	-2%
81	Cc1nn2c(N3CCOCC3)cc(C(C)(C)C)nc2c1-c1ccc(Cl)cc1	-1%	-1.4%	x	2%
82	COc1ccc(/C=C/c2ccccc2)cc1[C@H]1[C@H]2C=CC[C@@H](C)[C@@H]2C(=O)N1Cc1ccccc1	-4%	0.0%	-1	0%
83	CC(Oc1ccc(Br)cc1)C(=O)Nn1c(=S)[nH]c2ncccc2c1=O (stereo not given)	x	x	0	-2%
84	COc1ccc(/C=N/NC(=O)CNC(=O)COc2ccccc2)cc1	-4%	-1.7%	-3	-7%
85	Cc1nnc(SCCN2CCOCC2)n1-c1cccc(Cl)c1	6%	2.5%	7	-8%
86	Cc1cc(C)n2nc(SCc3cc(=O)oc4cc(O)ccc34)nc2n1	x	x	5	-10%
87	O=C(O)CSc1nc2ccc(Cl)cc2[nH]1	16%	3.5%	-12	-19%
88	Cc1ccccc1-n1nnnc1SCC(=O)NCC1(N2CCOCC2)CCCCC1	23%	-0.3%	x	x

Results in sequence from above.
miR-21 reporter, entries 40–45 → -5%, -4%, x, -7%, 1%, 0%
Rango release inh, entries 40–45 → -7%, -5%, -14%, -7%, 24%, -29%

Not all compounds are listed; rates above refer to the full screens.
